From PubChem BioAssay
Six1-Eya2 inh = qHTS Assay for Inhibitors of the Six1/Eya2 Interaction | 0.56% of 360,000 active | Homeobox protein SIX1 (Homo sapiens) + Protein phosphatase EYA2 (Homo sapiens), … | activity change, % (concentration not given with the values) | AlphaScreen GST-Six1/His-Eya2 binding, biochemical; active compounds read low; control for the full effect not named in the record; in the data active = activity change below about -65%; inconclusive = about -30% to -65%; inactive = above about -30%; also: % is scaled to controls: 0 for no effect and ±100 for the full control effect
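AlphaScreen luminescence read after one hour at 37 °C in darkness. Pin-transferred compounds met GST-Six1 and His-Eya2 protein (5X stock 250 nM/500 nM) plus glutathione donor and Ni-chelate acceptor beads (5X, 50 ug/mL).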
D2 potentiator = Beta-Arrestin HTS for Positive Allosteric Modulators of the Human D2 Dopamine Receptor: Potentiators; AID 624464, 2012; DiscoveRx D2 beta-arrestin cells, luminescence, 90 min; 100% = 57 uM dopamine signal; 0.23% of 360,000 active; potentiation, % (no concentration beside the values); active = potentiation of 50% or more; inconclusive = 30% to 50%; inactive = 30% or less;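 also: compound concentration not given in the record; tested on top of an EC20 dose of dopamine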
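PathHunter D2 cells, attached overnight at 37 deg C, received compound in DMSO plus dopamine at EC20 (50 nM final) for 90 min at 37 deg C. Beta-arrestin recruitment was read as luminescence after 1 h with detection reagent at ambient temperature.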
TRPML1 blocker = qHTS for Inhibitors of the Human Mucolipin Transient Receptor Potential 1 (TRPML1); Mucolipin-1 (Homo sapiens), Q9GZU1; TRPML1-inducible cells, Ca2+ dye fluorescence, FDSS; active compounds read low; inhibition of EC80 agonist-evoked calcium signal; activity change, negative = inhibition, % (concentration not given with the values); 0.02% of 390,000 active; in the data active means activity change below about -50%; inconclusive means about -30% to -50%; inactive means above about -30%;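 also: stimulus is agonist 54-4 at its EC80 concentration; % is scaled to controls: 0 for no effect and ±100 for the full control effect; the text of the record puts the active cut at -80%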
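Tet-induced TRPML1-DL cells loaded with Ca8 no-wash calcium dye were read kinetically on FDSS. Compound addition was followed by EC80 agonist 54-4 (4 uM final); inhibition was read over 110 s.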
TRPML1 agonist = qHTS for Agonists of the Human Mucolipin Transient Receptor Potential 1 (TRPML1) | Mucolipin-1 (Homo sapiens), Q9GZU1 | TRPML1-expressing cells, Ca2+ dye fluorescence, FDSS; host cell line not named in the record; reference of the full effect not given here | activation, % (no concentration beside the values) | 0.12% of 410,000 active | AID 624414, 2012; in the data active = activation above about 50%; inconclusive = about 30% to 50%; inactive = below about 30%; also: 0% is about no effect; the text of the record puts the active cut at 80%
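Agonist activity was taken from a 110 s kinetic Ca2+ dye read on the FDSS after pinning compounds onto TRPML1-DL cells. The cells were seeded at 1,500/well with Tet inducer, incubated about 16 h, then dye-loaded at room temperature.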
TRPV1 potentiator = HTS Assay for Compounds that Act as Potentiators of the Vanilloid Receptor 1 | TRPV1-expressing cells, Fluo-8 calcium influx, capsaicin EC20 potentiation; host cell line not named in the record; control for the full effect not named in the record | 0.02% of 320,000 active | potentiation, % at 8.33 µM; active means potentiation above 80%; inconclusive means 30% to 80%; inactive means below 30%; also: 0% is about no effect
Target sequence (Q8NER1 whole entry, looked up): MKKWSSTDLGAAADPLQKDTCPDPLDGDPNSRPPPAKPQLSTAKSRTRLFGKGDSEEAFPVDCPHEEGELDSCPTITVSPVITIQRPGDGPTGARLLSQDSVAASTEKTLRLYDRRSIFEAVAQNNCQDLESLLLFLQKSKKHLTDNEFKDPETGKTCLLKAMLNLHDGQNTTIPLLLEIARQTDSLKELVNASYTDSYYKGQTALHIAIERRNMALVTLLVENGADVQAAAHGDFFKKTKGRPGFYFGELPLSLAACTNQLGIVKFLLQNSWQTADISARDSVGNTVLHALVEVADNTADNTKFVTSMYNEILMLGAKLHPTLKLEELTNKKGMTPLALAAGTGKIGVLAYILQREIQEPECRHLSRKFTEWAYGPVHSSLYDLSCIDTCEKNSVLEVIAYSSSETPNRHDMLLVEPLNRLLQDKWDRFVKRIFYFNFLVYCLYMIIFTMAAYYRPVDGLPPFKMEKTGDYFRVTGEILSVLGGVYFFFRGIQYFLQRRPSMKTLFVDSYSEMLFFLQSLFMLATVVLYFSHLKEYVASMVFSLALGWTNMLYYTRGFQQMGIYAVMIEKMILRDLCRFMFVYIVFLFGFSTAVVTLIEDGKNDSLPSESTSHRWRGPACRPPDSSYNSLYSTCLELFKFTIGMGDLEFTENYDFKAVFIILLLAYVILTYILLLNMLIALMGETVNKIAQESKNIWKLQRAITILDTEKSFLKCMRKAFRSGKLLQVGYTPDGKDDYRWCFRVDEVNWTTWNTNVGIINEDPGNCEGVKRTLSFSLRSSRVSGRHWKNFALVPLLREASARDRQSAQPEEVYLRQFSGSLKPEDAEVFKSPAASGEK
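Cells expressing TRPV1 were dye-loaded with Fluo-8 and read kinetically: 10 s baseline, 3 min after compound (agonist portion), then 2 min after EC20 capsaicin (allosteric enhancer portion). Calcium-bound dye fluorescence at 480/520 nm.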
CtBP-E1A blk = qHTS Assay for Inhibitors of the CtBP/E1A Interaction | AID 651724, 2012 | AlphaScreen GST-E1A/His-CtBP binding, 1536-well; active compounds read low; control for the full effect not named in the record | CtBP / adenovirus E1A interaction (AlphaScreen) | 0.49% of 340,000 active | activity change, % (concentration not given with the values); in the data active means activity change below about -65%; inconclusive means about -30% to -65%; inactive means above about -30%; also: % is scaled to controls: 0 for no effect and ±100 for the full control effect
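GST-E1A and His-tagged CtBP (125 nM each as 5X stock) were preincubated with pin-transferred compound for 2 h at 37 °C in the dark, then glutathione donor and nickel acceptor beads were added for 1 h before AlphaScreen reading.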
Numbers without * were called inactive; ? = inconclusive; · = not tested or not shown.

SMILES | Six1-Eya2 inh | D2 potentiator | TRPML1 blocker | TRPML1 agonist | TRPV1 potentiator | CtBP-E1A blk
Cc1[nH]c2ccccc2c1C(C[N+](=O)[O-])c1cccc(O)c1 (centres undefined) | -5 | -2 | -4 | -0.6 | -28 | -2
c1ccc(CN2C3=NCCN3c3ccccc32)cc1 | 2 | -11 | 13 | 0.8 | -2 | -12
CCOC(=O)CC1C(=O)NCCN1S(=O)(=O)c1ccc(Cl)cc1 (centres undefined) | 8 | 0 | -11 | 0.0 | -1 | 2
COc1ccc(S(=O)(=O)NCCCCCC(=O)O)cc1C(=O)O | 5 | 2 | 8 | -0.1 | -8 | 7
COc1c(N2CCN[C@H](C)C2)c(F)cc2c(=O)c(C(=O)O)cn(C3CC3)c12 | 6 | 3 | -12 | -0.6 | 15 | 5
Cc1ccccc1CSCCNC(=S)Nc1ccccc1 | -7 | -8 | -15 | -0.1 | -2 | -11
COc1cccc(OC)c1C(=O)Nc1ccccc1C(=O)N1CCCC1 | 6 | 6 | -23 | 0.5 | 5 | -10
Cc1ccccc1N(CC(=O)NCc1ccc2c(c1)OCO2)C(=O)CCC(=O)Nc1ccccn1 | -13 | -29 | 8 | 0.2 | -10 | -4
Cc1ccc(OC(C)C(=O)Nc2ccccc2C(=O)N2CCN(C)CC2)cc1 (centres undefined) | -5 | 1 | 10 | 0.6 | 3 | -1
CC1CCN(C(=O)CNC(=O)Cn2ccc3ccccc3c2=O)CC1 | 1 | -2 | 5 | -0.5 | · | 4
O=C(Nc1ccccc1-c1ccccc1)c1ccc(Cl)c([N+](=O)[O-])c1 | -13 | -23 | 10 | 4.2 | 12 | -10
Oc1ccc(N=Nc2nc(-c3ccccc3)c(-c3ccccc3)[nH]2)cc1 | ? | -21 | 44 | 0.7 | -8 | -5
CCc1cc(Cn2nc(-c3ccccc3)cc2C(=O)NCc2cccs2)on1 | 21 | -21 | 7 | 0.6 | 22 | 0
Cc1ccc(-n2c(-c3nn(C)c(C)c3Cl)n[nH]c2=S)cc1 | 4 | -11 | -2 | -1.0 | 9 | 8
N#Cc1ccc(OCC(O)CN2CCN(c3ncc(C(F)(F)F)cc3Cl)CC2)cc1 (centres undefined) | 2 | -9 | 26 | 1.7 | 0 | -2
CCOCCCNC(=S)NCCNc1nc2c(C)cccc2cc1C#N | 2 | -17 | 1 | 0.2 | -5 | 9
CCCCCCCCN1C(=O)[C@H](CC(=O)N2CCN(C(=O)OCC)CC2)C[C@@]2(C(=O)OC)CCCCC=C12 | 1 | · | · | -0.3 | · | 5
COc1ccc(S(=O)(=O)N(C)C[C@@H]2Oc3c(NS(=O)(=O)c4cn(C)cn4)cccc3C(=O)N([C@@H](C)CO)C[C@@H]2C)cc1 | -1 | -3 | 27 | 0.1 | · | -21
CCOC(=O)Cc1csc(NC(=O)NC2(C(F)(F)F)Oc3cc(Cl)c(Cl)cc3O2)n1 | -16 | ? | 9 | 3.2 | 1 | -1
CC(=O)CCc1ccc(Oc2nc(-c3cccnc3)nc3ccccc23)cc1 | -2 | 6 | -7 | -0.4 | -1 | 0
O=C(CSCc1ccccc1)Nc1ccc(F)c(F)c1 | 11 | -25 | -8 | -0.1 | -15 | 11
CC(C)(C)c1ccc(Oc2coc3cc(OCC(=O)O)ccc3c2=O)cc1 | -2 | 4 | 4 | -0.5 | 1 | 11
Cc1ccccc1OCCC(=O)OCC(=O)Nc1cc(S(=O)(=O)N2CCOCC2)ccc1Cl | 7 | 2 | 1 | 1.0 | -3 | 9
COc1ccc(NC(=O)c2noc3c2CCCCC3)cc1 | 4 | -9 | · | · | 0 | -5
CC(=O)c1cccc(NC(=O)c2ccc(N(Cc3ccccc3)S(C)(=O)=O)cc2)c1 | 1 | -3 | 10 | 0.8 | -15 | -1
COc1ccc(Cc2nc3ccc(C(=O)N(C)C(C)c4nccs4)cc3o2)cc1 (centres undefined) | 4 | -12 | 14 | 0.8 | -7 | -5
CCC(C(=O)OC)n1cnc2c(cnn2-c2ccc(Cl)cc2)c1=O (centres undefined) | -2 | -12 | 3 | 0.8 | -10 | 5
Cc1cccc(-c2onc3ccc(C(=O)/C=C/N(C)C)cc23)c1 | -19 | -5 | -21 | 0.8 | 21 | ·
CCCc1c(C)c2cccc(C)c2[nH]c1=O | -24 | 2 | 16 | 0.9 | -7 | 1
Cc1cnc(C(=O)OCC(=O)Nc2ccc(Cl)cn2)cn1 | 2 | 6 | -5 | 0.3 | 9 | -9
Cc1ccc(N(Cc2ccccc2)C(=O)c2ccc(Cl)c(S(=O)(=O)N3CCOCC3)c2)cc1 | -13 | -12 | 25 | 0.0 | -22 | -3
CC(C)Oc1ccc(S(=O)(=O)N2CCOCC2)cc1NC(=O)CSc1nnc(C2CC2)n1C | 0 | -1 | -4 | -0.6 | · | 3
CCN(CC)S(=O)(=O)c1ccc(C(=O)Nc2cc(S(=O)(=O)N3CCOCC3)ccc2O)cc1 | -6 | -1 | 20 | -0.6 | · | ·
CCN(CC)CCCN1C(=O)C(=O)/C(=C(/O)c2ccccc2)C1c1cc(OC)ccc1OC (centres undefined) | 7 | -11 | 0 | 0.4 | 3 | 9
N/C(=N\OC(=O)COc1cc(Cl)c(Cl)cc1Cl)c1ccccn1 | -1 | 6 | 50 | 4.1 | 19 | 1
CCOC(=O)C1=NN(C(=O)Nc2cccc(C(F)(F)F)c2)C2C(=O)N(c3cccc(C(F)(F)F)c3)C(=O)C12 (centres undefined) | -5 | -3 | 19 | 0.1 | 29 | -8
COc1ccc(-c2noc(CCC(=O)NCCCN3CCC(Cc4ccccc4)CC3)n2)cc1 | -1 | -40 | 30 | 0.5 | -16 | 0
CCCCNc1nc(NCc2ccccc2)nc2ccccc12 | 16 | · | · | 30 | · | 1
c1ccc(-c2ccccc2OCc2nnc3n2CCC3)cc1 | 6 | -11 | -24 | 0.9 | -2 | ·
CCOC(=O)c1c(C)[nH]c(N=Nc2ccccc2)c1C | ? | -13 | 3 | 0.4 | 8 | -29
CC(=O)Nc1nnc(S(=O)(=O)N2CCN(c3ccc([N+](=O)[O-])cc3Cl)CC2)s1 | -5 | 0 | 5 | -1.3 | -14 | -7
Cc1ccc(Oc2nc3ccccn3c(=O)c2/C=C(\C#N)C(=O)Nc2c(C)n(C)n(-c3ccccc3)c2=O)c(C)c1 | -16 | -7 | ? | -0.8 | 13 | -14
O=C(CN1CCCCC1)Nc1ccc(F)c(Cl)c1 | 1 | -24 | 3 | 0.1 | -20 | 0
CC(=O)N1c2ccc(S(=O)(=O)N3CCC(C(=O)NC4CCCC(C)C4C)CC3)cc2CC1C (centres undefined) | -4 | -4 | -7 | -0.9 | 29 | 2
Cc1nc2scc(-c3ccccc3)c2c(=O)n1N=C1C=CC(=O)C=C1 | -10 | -27 | 16 | 0.0 | -11 | -6
CC(=O)NN1C(=O)c2ccccc2NC1c1ccccn1 (centres undefined) | 8 | -8 | -10 | 0.0 | 11 | 14
Nc1ccc(C(=O)OCc2nc3ccccc3[nH]2)cc1 | -3 | -16 | -19 | -0.9 | 3 | 2
CCc1cc2cc(C)c(C)cc2nc1SCC(=O)NNC(=O)c1ccco1 | 3 | -10 | 39 | 2.2 | -8 | 5
O=C(Nc1cc(S(=O)(=O)Nc2ccc(Cl)cc2)ccc1O)c1ccc(F)cc1F | 13 | -13 | 5 | 2.9 | · | 0
Cc1cccn2c(=O)c(C(=O)NCCCN3CC(C)CC(C)C3)c(O)nc12 (centres undefined) | -6 | -6 | 6 | -0.3 | 13 | 3

Rewritten with each value named: entries from further up
CC(=O)Nc1nnc(S(=O)(=O)N2CCN(c3ccc([N+](=O)[O-])cc3Cl)CC2)s1
- Six1-Eya2 inh = -5
- D2 potentiator = 0
- TRPML1 blocker = 5
- TRPML1 agonist = -1.3
- TRPV1 potentiator = -14
- CtBP-E1A blk = -7

Cc1cnc(C(=O)OCC(=O)Nc2ccc(Cl)cn2)cn1
- Six1-Eya2 inh = 2
- D2 potentiator = 6
- TRPML1 blocker = -5
- TRPML1 agonist = 0.3
- TRPV1 potentiator = 9
- CtBP-E1A blk = -9

CCc1cc2cc(C)c(C)cc2nc1SCC(=O)NNC(=O)c1ccco1
- Six1-Eya2 inh = 3
- D2 potentiator = -10
- TRPML1 blocker = 39
- TRPML1 agonist = 2.2
- TRPV1 potentiator = -8
- CtBP-E1A blk = 5

CCC(C(=O)OC)n1cnc2c(cnn2-c2ccc(Cl)cc2)c1=O (centres undefined)
- Six1-Eya2 inh = -2
- D2 potentiator = -12
- TRPML1 blocker = 3
- TRPML1 agonist = 0.8
- TRPV1 potentiator = -10
- CtBP-E1A blk = 5

(continued)
SMILES | Six1-Eya2 inh | D2 potentiator | TRPML1 blocker | TRPML1 agonist | TRPV1 potentiator | CtBP-E1A blk
Cn1c(=O)c(C(=O)CN2CCc3ccccc32)c(N)n(Cc2ccccc2)c1=O | 1 | -5 | -3 | -0.6 | -3 | 1
O=C(NCCc1ccccc1)c1cc([N+](=O)[O-])ccc1N1CCOCC1 | 3 | -5 | 4 | 1.9 | · | -5
Cc1ccc(OCC(=O)NNC(=O)C2CSC3(C)CCC(=O)N23)cc1C (centres undefined) | 1 | 18 | 6 | -0.6 | 24 | -1
OCC1(Cc2ccccc2)CCN(C2CCN(c3ccccc3F)CC2)CC1 | -2 | -15 | -17 | -0.3 | 2 | 1
OC[C@@H]1CN(Cc2ccco2)C[C@H](n2cnc3c(NC4CC4)ncnc32)O1 | 2 | -9 | -10 | 0.4 | · | 11
O=C(Nc1ccccc1-c1nnn(CC(=O)N2CCc3ccccc3C2)n1)C1CCC1 | -5 | -11 | 0 | 1.1 | -13 | -1
Cc1cc(N2CCOCC2)nc2ccc(NC(=O)CCC(=O)N3CCN(c4ccccc4F)CC3)cc12 | -19 | -8 | 2 | -1.7 | -14 | -3
Cc1cc(=O)[nH]c(SCC(=O)Nc2nonc2C)n1 | 0 | -1 | 2 | 1.1 | 23 | 8
CCN(CCCNC(=O)CCCOc1cc(=O)n(C)c2ccccc12)Cc1ccccc1 | -5 | -18 | 21 | 0.1 | -2 | ·
O=c1ccn([C@@H]2O[C@H](CNCc3cccn3-c3ccncc3)[C@@H](O)[C@H]2O)c(=O)[nH]1 | -9 | -4 | 11 | 1.0 | · | ?
CC(=O)c1cc2c(C)c(C(=O)c3ccccc3)oc2cc1O | 2 | -27 | -2 | 0.1 | -3 | 11
O=C(/C=C/c1ccc(Cl)cc1)NC(=S)Nc1ccc(C(=O)O)cc1 | 22 | 5 | -4 | -0.4 | 12 | 8
O=C(NCN1C(=O)C2C3C=CC(C3)C2C1=O)Nc1nncs1 (centres undefined) | 10 | -7 | 2 | -0.1 | 0 | -3
Cc1cccc(/C=N/NC(=O)Cn2nc(C)cc2C)n1 | -1 | -7 | -6 | 0.3 | -3 | -4
